miR-21 reporter: qHTS Assay for Modulators of miRNAs and/orActivators of miR-21; Potency, µM (top dose mostly 38.3 µM), inactives show at the top dose reporter change, positive = more light; HeLa miR-21 FLuc reporter, luciferase, 48 h; AID 2288, 2010; 340,000 tested, under 10 active; active = well fitted rising curve with a large enough effect; inconclusive = small, poorly fitted or top-dose-only effect; inactive = no such curve, though single readings can be large or run the other way;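 note: % of control where 0% means no effect; miR-21 action dims this reporter so a rising signal means less miR-21 action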
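HeLa miR-21-FLuc reporter line, endogenous miR-21; 2000 cells/well in DMEM/10% FBS; compound titration up to ~40uM final, 48 h, 37 degree Celsius; luciferase detection reagent, 15 min lysis, CCD luminescence.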
Rango dissoc inh: qHTS Assay for Inhibitors of RanGTP induced Rango (Ran-regulated importin-beta cargo) - Importin beta complex dissociation; Snurportin-1 (Homo sapiens) + GTP-binding nuclear protein Ran (Homo sapiens) + Importin …; 340,000 tested, 0.071% active; Biochemical FRET Rango-importin beta, RanGTP-induced dissociation; Potency, µM (titrated, usually from 46.1 µM), without a hit: at the top dose activity change, negative = inhibition; AID 540253, 2011; active means falling FRET ratio curve, often poorly fitted, with flat reads before Ran was added; inconclusive means other falling curves, or compound fluorescence or quenching; inactive means flat or rising ratio curve;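 note: potency is the fitted concentration of half-maximal effect; % of control where 0% means no effect; nearly all actives have a fitted effect of over 45% in size; -100% = wells without RanGTP and RCC1; the record marks most hits as doubtful in a second field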
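Rango/importin beta premix (0.1/0.25 uM final), PBS + 1 mM DTT + 0.02% Tween-20 + 0.1% BSA; cpd 5 min RT; FRET pre-read; + RanGTP-RCC1 (0.6 uM Ran, 2 mM GTP, 0.2 uM RCC1); 45 min RT; FRET post-read, ex 430, em 486/530 nm.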
GLA inh pH 4.5: qHTS Assay for Inhibitors of Human alpha-Galactosidase at pH 4.5; purified enzyme, 4-MU-alpha-Gal fluorescence, pH 4.5; activity change, negative = inhibition, % at 105 µM; 230,000 tested, under 10 active; inconclusive = small, poorly fitted or top-dose-only inhibition, or a rising curve; inactive = flat fitted curve, though single readings scatter; no compound was filed as active;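 note: 0% = full activity with enzyme and -100% = basal without enzyme; dose as in the result columns while the protocol names 77 µM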
Rango complex inh: qHTS Assay for Inhibitors of Rango (Ran-regulated importin-beta cargo) - Importin beta complex formation; Importin subunit beta-1 (Homo sapiens), Q14974; Rango CFP/YFP FRET sensor + importin beta, 45 min; Potency, µM (doses to about 92.2 µM), for inactives: top-dose inhibition of complex formation; 340,000 tested, 0.031% active; AID 540263, 2011; active = rising FRET ratio curve, often small or poorly fitted; inconclusive = mostly compound fluorescence or quenching in the first reads; inactive = flat curves in all reads;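 note: potency is the fitted concentration of half-maximal effect; 0% = DMSO wells and 100% = buffer wells lacking importin beta; nearly all actives have a fitted effect of over 15% in size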
Target sequence (Q14974 whole entry, looked up): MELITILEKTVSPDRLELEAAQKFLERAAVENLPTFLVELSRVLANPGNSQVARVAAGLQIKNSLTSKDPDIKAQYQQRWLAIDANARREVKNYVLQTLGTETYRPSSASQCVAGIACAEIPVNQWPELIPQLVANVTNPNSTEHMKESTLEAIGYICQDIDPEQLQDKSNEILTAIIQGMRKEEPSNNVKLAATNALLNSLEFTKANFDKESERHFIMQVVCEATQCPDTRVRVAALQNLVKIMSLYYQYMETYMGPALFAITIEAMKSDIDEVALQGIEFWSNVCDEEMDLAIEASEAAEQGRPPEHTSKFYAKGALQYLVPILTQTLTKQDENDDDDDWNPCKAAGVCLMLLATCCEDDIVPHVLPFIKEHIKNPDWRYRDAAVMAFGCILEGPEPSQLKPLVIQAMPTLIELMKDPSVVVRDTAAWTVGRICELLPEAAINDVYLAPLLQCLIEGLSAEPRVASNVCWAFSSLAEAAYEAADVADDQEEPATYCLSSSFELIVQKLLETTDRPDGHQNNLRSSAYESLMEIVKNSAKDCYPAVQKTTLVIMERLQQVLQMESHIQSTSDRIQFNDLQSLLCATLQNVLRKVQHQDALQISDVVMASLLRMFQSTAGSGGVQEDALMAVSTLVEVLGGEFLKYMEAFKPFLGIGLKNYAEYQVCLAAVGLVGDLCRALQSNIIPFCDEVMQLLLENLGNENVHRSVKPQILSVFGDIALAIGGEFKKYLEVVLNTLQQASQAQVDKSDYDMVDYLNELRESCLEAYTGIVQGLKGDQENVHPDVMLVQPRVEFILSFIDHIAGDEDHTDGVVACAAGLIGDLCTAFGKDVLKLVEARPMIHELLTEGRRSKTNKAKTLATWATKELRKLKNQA
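Inhibition scored from the CFP 486 nm/YFP 530 nm FRET ratio 45 min after adding 0.125 microM importin beta to 50 nM Rango biosensor preincubated 5 min with compound (room temperature, PBS with DTT, Tween-20, BSA). No-importin wells as positive control.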
* marks the source's active call; other numbers are inactive results; ? = inconclusive; · = not tested or not shown; & = joins results of further samples; [ ] = dose if it differs, or a comment.

GLA inh pH 4.5 | Rango dissoc inh | miR-21 reporter | Rango complex inh | Structure
· | -2% | -6% | 0.8% | CCOc1ccc(CN(C)C(=O)c2ccc(NC(=O)CC3SC(N4CCCC4)=NC3=O)cc2)cc1 (stereo not drawn)
3 | 0% | -4% | 2.9% | CCOC(=O)C1C(=O)NC(N2CCCCC2)=NC1c1ccco1 (stereo not drawn)
6 | 10% | -1% | -1.6% | CCn1cc(CN(C)S(=O)(=O)c2cccc([N+](=O)[O-])c2)cn1
7 | 2% | -43% | -3.3% | CC(C)Sc1nnc(NC(=O)c2ccco2)s1
· | -13% | -8% | ? | CCc1ccc(CN(Cc2cccnc2)C(=O)/C=C/c2ccc(OC)cc2)cc1
13 | 6% | -3% | 0.8% | Cc1cccnc1NCC(O)COc1ccccc1 (stereo not drawn)
-2 | 7% | -17% | 1.7% | CSc1ccccc1NC(=O)CN(C)Cc1cc(=O)n2ccsc2n1
· | 9% | -19% | 1.4% | Cc1ccc(OCC(=O)NC(C)c2ccc(Cl)c(Cl)c2)c([N+](=O)[O-])n1 (stereo not drawn)
-1 | -3% | -5% | 0.0% | N#Cc1cc([N+](=O)[O-])ccc1NCCc1ccccn1
-10 | 4% | -61% | 1.7% | Cc1cc(NC(=O)c2ccccc2[N+](=O)[O-])ccc1Br
-10 | 19% | -14% | -0.5% | CCOC(=O)c1sc(NC(=S)NC(=O)C2CCCC2)cc1C
· | 12% | · | 0.4% | CC(O)C(NS(=O)(=O)c1ccc(Cl)cc1)C(=O)OCC(=O)c1ccc2c(c1)NC(=O)CO2 (stereo not drawn)
· | ? | · | ? | O=C(Cc1ccc(F)cc1)NC1CCS(=O)(=O)C1 (stereo not drawn)
-2 | -4% | 0% | -0.5% | O=C(NC1CCCC1)C(c1ccc(F)cc1)N(Cc1ccc(F)cc1)C(=O)c1ccn[nH]1 (stereo not drawn)
-4 | 15% | 14% | 2.6% | CC[N+]1(CC)CC2=Cc3c(ccc4ccccc34)C(C)C2C1 (stereo not drawn)
· | -9% | · | 0.3% | O=C(C[C@@H]1C/C=C\CC[C@@H](Cc2ccc(F)cc2)C(=O)OC[C@@H]2CCCN2C1=O)N[C@H](CO)Cc1ccccc1
3 | 1% | -16% | 2.4% | O=C1CSC(c2cccc(Cl)c2Cl)N1c1ccccn1 (stereo not drawn)
· | 1% | · | -5.4% | O=C(Nc1ccccc1C(=O)Nc1ccc(Br)cn1)c1ccccc1Cl
· | 7% | 1% | -0.2% | Cc1coc2c(C)c3oc(=O)c(CCC(=O)N[C@@H](C)C(=O)N[C@@H](Cc4ccccc4)C(=O)O)c(C)c3cc12
· | 8% | -13% | 2.0% | Cc1ccc(S(=O)(=O)NC(=O)c2ccccc2C)cc1
· | 11% | -20% | 0.2% | CC1CCC(NC(=O)CCCn2sc3ccccc3c2=O)CC1 (stereo not drawn)
· | 0% | -38% | -4.8% | COc1cc(OC)c(C(=O)Nc2cccc3ccccc23)cc1OC
· | -8% | · | -1.4% | COc1ccc(CN2CC(=O)N3[C@H]4c5cc(C)ccc5OC[C@@H]4[C@H](c4ccccc4)[C@]3(C)C2=O)cc1
7 | 0% | -11% | 0.4% | Cc1ccc(-c2nn(-c3ccccc3)cc2C(=O)NN2CCN(C)CC2)cc1
5 | ? | 1% | ? | CN1CCN(c2ccc(S(=O)(=O)N3CCCCC3)cn2)CC1
10 | 3% | -4% | -3.1% | CCCCn1c(SCC(=O)N2CC(=O)Nc3ccccc32)nnc1-c1ccoc1C
· | -12% | · | ? | CCN(C[C@H]1N[C@@](C)(C(=O)OC)[C@H]2C(=O)N(C)C(=O)[C@@H]12)S(=O)(=O)c1ccc(F)cc1
6 | -6% | 10% | 0.0% | COc1cccc(Oc2cn[nH]c2-c2ccc(O)cc2O)c1
· | -7% | · | 3.5% | CC(=O)Nc1ccc2c(c1Br)Cc1ccccc1-2
5 | -3% | 1% | -2.0% | N/C(=N\O)c1ccccc1-n1cccc1
5 | 14% | -10% | 5.2% | O=C(CN1C(=O)CCSc2ccccc21)Nc1ccccc1
-3 | 0% | -9% | -5.0% | CCNc1nc(NCC)nc(OCCNS(=O)(=O)c2cc(C)ccc2C)n1
2 | 19% | -6% | -2.0% | COCCCn1c2nc3ccccc3nc2c2c(=O)n(-c3ccccc3OC)cnc21
· | 0% | 3% | -2.6% | Cc1ccc(S(=O)(=O)NCCNC(=O)CN2CCOCC2)cc1
2 | 1% | 0% | -4.7% | CCCc1cc(=O)n2[nH]c(C)nc2n1
· | -8% | -50% | -1.5% | Cc1csc(N/N=C/c2c(F)cccc2Cl)n1
-4 | 4% | -2% | 1.5% | CCN(CC)S(=O)(=O)c1ccc(NC(=O)c2ccccc2N(C)S(C)(=O)=O)cc1
· | -25% | · | -0.7% | C[C@@H]1CN([C@@H](C)CO)C(=O)Cc2cc(NC(=O)Nc3ccc(C(F)(F)F)cc3)ccc2O[C@@H]1CN(C)S(=O)(=O)c1ccc(Cl)cc1
· | -21% | · | -2.4% | COC(=O)c1c(-c2ccc(OC)cc2)sc2cc3c(cc12)OCO3
7 | 10% | 17% | -2.3% | CCCCc1n(CC(=O)c2ccc(Cl)cc2)c2ccccc2[n+]1C
· | 12% | 6% | 1.7% | Oc1ccc(C23CC4CC(CC(C4)C2)C3)cc1O
? | ? | -17% | ? | O=C(NC1CCN(Cc2ccccc2)CC1)c1ccc(Cn2c(=S)[nH]c3ccc(N4CCOCC4)cc3c2=O)cc1
3 | 16% | 4% | -0.8% | COCCN(CC(=O)NC1CCCCC1)C(=O)c1csnn1
· | 11% | 13% | 3.4% | COc1ccc(CCNC(=O)CNC(=O)c2nn(-c3ccc(OC)c(OC)c3)c(=O)c3ccccc23)cc1OC
7 | -6% | -1% | -3.9% | CC1CCCCC1NC(=O)COC(=O)COc1ccc(Cl)cc1 (stereo not drawn)
1 | 0% | 2% | -2.3% | COCCn1c(-c2ccsc2)nc2c1c(=O)[nH]c(=O)n2CC(C)C
4 | -8% | -14% | 2.1% | O=C(C1CC(c2ccc(F)cc2)=NO1)N1CCCc2ccccc21 (stereo not drawn)
· | 0% | · | 3.9% | Cc1cc(NC(=O)CSc2nnc(-c3ccccc3F)n2N)no1
8 | -9% | -5% | -0.1% | CC(C)CC(NC(=O)C1CCC(C)CC1)C(=O)NCc1ccco1 (stereo not drawn)
1 | -13% | 2% | -0.8% | O=C(CSCSCC(=O)NCC1CCCO1)NCC1CCCO1 (stereo not drawn)
4 | 7% | -4% | 0.6% | CCCCNCCCOc1cccc(Cl)c1
· | ? | · | ? | COc1ccc2c(-c3ccc(SC)cc3)c(-c3ccc(S(C)(=O)=O)cc3)sc2c1
-2 | -3% | -21% | -0.2% | CC(=O)c1nnn(-c2ccc(Cl)cc2C#N)c1C
11 | 2% | 2% | -1.2% | COc1cc(Br)c(C(C)NC(=O)c2ccccc2)cc1OC (stereo not drawn)
6 | · | 1% | · | C/C(CCN1CCCCc2nc(C)c(C)cc21)=N\OC[C@@H](O)[C@H]1O[C@@H]2OC(C)(C)O[C@@H]2[C@H]1O
-9 | 8% | 1% | -2.7% | COc1ccc(/C(O)=C2/C(=O)C(=O)N(CCN(C)C)C2c2cccnc2)cc1OC (stereo not drawn)
-3&-6&-8 | ? | -8% | ? | CC(=O)OCC1=C(C(=O)O)N2C(=O)[C@@H](NC(=O)Cc3cccs3)[C@H]2SC1
· | 1% | · | 5.0% | O=C(CCc1nc2ccccc2c(=O)[nH]1)N1CCN(S(=O)(=O)c2cccc([N+](=O)[O-])c2)CC1
-6 | 12% | -4% | 0.0% | COc1ccc(-n2c(Cn3nnc4ccccc43)n[nH]c2=S)cc1
-1 | 13% | -53% | -3.6% | CC(=O)N/C(N)=N/c1nc(=O)c2ccccc2s1

(next part)
GLA inh pH 4.5 | Rango dissoc inh | miR-21 reporter | Rango complex inh | Structure
2 | 2% | 17% | 0.2% | CC(C)NC(=O)NC(=O)COC(=O)c1ccccc1Oc1ccccc1
-22 | -6% | -6% | -2.1% | COc1cccc(C(CC(=O)NCCN2CCOCC2)NS(=O)(=O)c2ccc(C)cc2)c1OC (stereo not drawn)
1 | 8% | -1% | -0.5% | O=C(COc1ccccc1)Nc1nn[nH]n1
· | -14% | 10% | 0.2% | O=c1[nH]c(C2CCN(S(=O)(=O)c3cccc(C(F)(F)F)c3)CC2)nc2c1nnn2Cc1cccc(F)c1
-3 | 6% | -40% | 0.3% | Cc1nn(Cc2c(F)c(F)c(F)c(F)c2F)c(C)c1NC(=O)c1ccc(COc2cc(Cl)ccc2Cl)cc1
-6 | -19% | -5% | ? | CCCn1nc(NS(C)(=O)=O)c2cc3cccc(C)c3nc21
· | -8% | -4% | 5.2% | Cc1ccc(C)c(S(=O)(=O)Nc2cccc(-n3cnnn3)c2)c1
-3 | 1% | -40% | -3.7% | CCOc1ccccc1OCCCOc1ccc(C)cc1Br
· | 13% | -4% | -0.7% | Cc1cccc(N(C(=O)Cc2cccs2)C(C(=O)NC2CCCC2)c2ccncc2)c1 (stereo not drawn)
· | 14% | -44% | 3.6% | CC(=O)c1ccc(NC(=O)c2cc(CC(C)C)nc3ccccc23)cc1
· | -2% | · | -0.3% | Cc1ccc(C)c(OCCC(=O)Nc2ccccc2C(=O)NC2CC2)c1
-13 | 3% | 1% | -2.8% | COc1cccc(-c2nc(S(=O)(=O)c3ccccc3)c(N3CCOCC3)o2)c1
23 | 0% | -20% | -3.9% | COc1cc(SC)ccc1C(=O)NCCOc1c(C)cc(C)cc1C
-5 | -4% | -17% | 1.5% | Cc1c(/C=N/NC(=O)COc2ccccc2[N+](=O)[O-])c2ccccc2n1C
? | ? | 7% | ? | CCC(=O)Nc1c(S(=O)(=O)c2ccccc2)c2nc3ccccc3nc2n1Cc1ccccc1
-3 | 2% | 3% | -0.1% | CC1(C#CC[N+]2(C)CCCCC2)CCC2C(O1)c1ccccc1OC2(C)C (stereo not drawn)
· | 1% | · | 0.7% | O=C1C=C(c2ccccc2)C[C@@H](c2ccc(Cl)cc2)C1
· | -9% | 0% | 0.5% | COc1ccc(OCC(=O)N2CCCC2=O)c([N+](=O)[O-])c1
7 | 1% | -21% | ? | CNC(=S)N(Cc1ccco1)Cc1cc2cc3c(cc2[nH]c1=O)OCCO3
· | -7% | · | ? | Cc1sc2nc(CSCC(=O)NC3(C#N)CCCCC3)[nH]c(=O)c2c1C
-9[21.1 µM] | -2% | -5% | 2.3% | CCC(Sc1nc2cc(OC)c(OC)cc2c(=O)n1CCc1ccc(OC)c(OC)c1)C(=O)NCCOC (stereo not drawn)
· | 21% | · | 6.2% | CC1Cc2ccccc2N1C(=O)COC(=O)/C=C/c1cccc(F)c1 (stereo not drawn)
· | 6% | · | 2.9% | Cc1ccc([C@@H]2CC=C(C(=O)O)[C@H](c3ccc(Br)cc3)N2S(=O)(=O)c2ccccc2C)cc1
6 | -11% | -3% | -0.1% | CCOC(=O)c1c(C)[nH]c(C(=O)COC(=O)c2ccccc2NC(=O)c2ccco2)c1C

Results in miR-21 reporter, GLA inh pH 4.5 and Rango complex inh (5 entries from above):
SMILES,miR-21 reporter,GLA inh pH 4.5,Rango complex inh
Cc1sc2nc(CSCC(=O)NC3(C#N)CCCCC3)[nH]c(=O)c2c1C,·,·,?
O=C1C=C(c2ccccc2)C[C@@H](c2ccc(Cl)cc2)C1,·,·,0.7%
CC1Cc2ccccc2N1C(=O)COC(=O)/C=C/c1cccc(F)c1 (stereo not drawn),·,·,6.2%
O=c1[nH]c(C2CCN(S(=O)(=O)c3cccc(C(F)(F)F)c3)CC2)nc2c1nnn2Cc1cccc(F)c1,10%,·,0.2%
CC1(C#CC[N+]2(C)CCCCC2)CCC2C(O1)c1ccccc1OC2(C)C (stereo not drawn),3%,-3,-0.1%

Screening results deposited in PubChem by National Center for Advancing Translational Sciences (NCATS).

A portion of the library; rates above refer to the full screens.
